Rango complex inh – inhibitors of Rango-importin beta complex formation | Q14974 | Rango CFP/YFP FRET sensor + importin beta, 45 min | Potency, µM (doses to about 92.2 µM), for the others: at the top dose inhibition of complex formation | 0.031% of 340,000 active; active = rising FRET ratio curve, often small or poorly fitted; inconclusive = mostly compound fluorescence or quenching in the first reads; inactive = flat curves in all reads;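 also: potency is read from the fitted curve at half-maximal effect; 0% = DMSO wells and 100% = buffer wells lacking importin beta; nearly all actives have a fitted effect of over 15% in size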
Target sequence (Q14974 whole entry, looked up): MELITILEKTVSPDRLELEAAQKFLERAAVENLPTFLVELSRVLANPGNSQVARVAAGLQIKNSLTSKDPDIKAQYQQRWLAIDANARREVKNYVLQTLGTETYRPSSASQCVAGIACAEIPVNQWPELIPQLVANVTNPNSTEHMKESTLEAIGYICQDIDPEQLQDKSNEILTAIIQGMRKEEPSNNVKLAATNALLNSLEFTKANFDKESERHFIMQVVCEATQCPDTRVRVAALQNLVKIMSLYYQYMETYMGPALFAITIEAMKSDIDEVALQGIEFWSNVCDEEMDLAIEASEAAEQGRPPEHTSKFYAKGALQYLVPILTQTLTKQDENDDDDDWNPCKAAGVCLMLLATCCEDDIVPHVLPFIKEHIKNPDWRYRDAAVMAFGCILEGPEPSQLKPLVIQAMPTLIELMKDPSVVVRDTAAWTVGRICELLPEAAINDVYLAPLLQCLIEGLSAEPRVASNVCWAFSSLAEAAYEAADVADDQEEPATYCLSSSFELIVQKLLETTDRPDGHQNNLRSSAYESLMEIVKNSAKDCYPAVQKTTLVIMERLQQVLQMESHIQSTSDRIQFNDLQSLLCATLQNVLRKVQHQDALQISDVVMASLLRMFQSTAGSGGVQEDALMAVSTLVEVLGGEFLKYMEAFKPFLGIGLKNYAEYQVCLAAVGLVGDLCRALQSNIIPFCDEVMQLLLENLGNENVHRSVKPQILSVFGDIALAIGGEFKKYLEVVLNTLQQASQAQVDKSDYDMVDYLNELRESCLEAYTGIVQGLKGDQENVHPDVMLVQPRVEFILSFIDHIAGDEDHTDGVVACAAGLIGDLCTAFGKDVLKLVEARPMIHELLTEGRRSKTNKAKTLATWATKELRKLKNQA
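Inhibition scored from the CFP 486 nm/YFP 530 nm FRET ratio 45 min after adding 0.125 microM importin beta to 50 nM Rango biosensor preincubated 5 min with compound (room temperature, PBS with DTT, Tween-20, BSA). No-importin wells as positive control.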
miR-21 reporter – raises the signal of a miR-21 reporter. 340,000 tested, under 10 active. HeLa miR-21 FLuc reporter, luciferase, 48 h. Potency, µM (highest dose often 38.3 µM), without a hit: at the top dose reporter change, positive = more light; active = well fitted rising curve with a large enough effect; inconclusive = small, poorly fitted or top-dose-only effect; inactive = no such curve, though single readings can be large or run the other way;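 also: % of control where 0% means no effect; miR-21 action dims this reporter so a rising signal means less miR-21 action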
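HeLa miR-21-FLuc reporter line, endogenous miR-21; 2000 cells/well in DMEM/10% FBS; compound titration up to ~40uM final, 48 h, 37 degree Celsius; luciferase detection reagent, 15 min lysis, CCD luminescence.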
GLA inh pH 4.5 – alpha-galactosidase A (human) inhibition, pH 4.5; purified enzyme, 4-MU-alpha-Gal fluorescence, pH 4.5; activity change, negative = inhibition, % at 105 µM; 230,000 tested, under 10 active; inconclusive = small, poorly fitted or top-dose-only inhibition, or a rising curve; inactive = flat fitted curve, though single readings scatter; no compound was filed as active;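 also: 0% = full activity with enzyme and -100% = basal without enzyme; dose as in the result columns while the protocol names 77 µM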
Rango release inh – prevents RanGTP from dissociating the Rango-importin beta complex; O95149+P62826; Biochemical FRET Rango-importin beta, RanGTP-induced dissociation; Potency, µM (series often up to 46.1 µM), without a hit: at the highest dose activity change, negative = inhibition; 0.071% of 340,000 active; AID 540253; active means falling FRET ratio curve, often poorly fitted, with flat reads before Ran was added; inconclusive means other falling curves, or compound fluorescence or quenching; inactive means flat or rising ratio curve;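 also: potency is read from the fitted curve at half-maximal effect; % of control where 0% means no effect; nearly all actives have a fitted effect of over 45% in size; -100% = wells without RanGTP and RCC1; the record marks most hits as doubtful in a second field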
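FRET read at 45 min, room temperature: inhibitors block the CFP/YFP signal rise when RanGTP (0.6 uM Ran, 2 mM GTP, 0.2 uM RCC1) frees Rango (0.1 uM) from importin beta (0.25 uM). Pre-read after 5 min compound exposure flags interference.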
Active calls of the source: *; & = joins results of further samples. An excerpt. The share of hits here may be higher or lower than overall.

What do the screens show for `Cc1ccc(S(=O)(=O)NCCC(=O)OC(C)C(=O)NC2CC2)cc1` (centres undefined)?
Rango complex inh: inconclusive; Rango release inh: -4%

How did COc1ccc(S(=O)(=O)Nc2ccc3c(c2)OCO3)cc1C(=O)O do in these assays?
Rango complex inh: -5.0%; miR-21 reporter: 1%; GLA inh pH 4.5: -1; Rango release inh: 13%

Results for COc1ccc(-n2ncc3c(Nc4cccc(C)c4)ncnc32)cc1 ?
Rango complex inh: -2.3%; miR-21 reporter: -33%; GLA inh pH 4.5: -7; Rango release inh: 0%

What do the screens show for `CCOC(=O)C1CCCN(C(=O)c2ccco2)C1` (centres undefined)?
Rango complex inh: -4.2%; miR-21 reporter: -1%; GLA inh pH 4.5: -7; Rango release inh: -3%

Results for O=C(Nc1nnc(SCCC2OCCO2)s1)C1CC(=O)N(c2ccc(F)cc2)C1 (centres undefined) ?
Rango complex inh: -2.4%; miR-21 reporter: -6%; Rango release inh: -16%

How did O=C(Nc1ccc2c(c1)OCCO2)c1ccc(Cl)c(S(=O)(=O)N2CCCCC2)c1 do in these assays?
Rango complex inh: -4.0%; miR-21 reporter: 1%; GLA inh pH 4.5: -14; Rango release inh: -4%

How did Cc1ccc(/C=C/C2=NN(Cc3ccccc3Cl)C(=O)CC2)cc1 do in these assays?
Rango complex inh: 4.8%; miR-21 reporter: -6%; GLA inh pH 4.5: -7; Rango release inh: -12%

Results for COc1ccc(N2CC(O)=C(c3nc(-c4ccc(F)cc4)cs3)C2=N)cc1OC ?
Rango complex inh: 0.6%; miR-21 reporter: -30%; GLA inh pH 4.5: -8; Rango release inh: -16%

Results for COC(=O)C1CCN(C(=O)COC(=O)COc2ccc(C#N)cc2)CC1 ?
Rango complex inh: 1.6%; miR-21 reporter: 0%; GLA inh pH 4.5: 7; Rango release inh: 3%

What do the screens show for `CCN1C[C@@H]2[C@@H]3C(=O)N(Cc4ccccc4)C(=O)[C@@H]3[C@](C)(C1=O)N2C(=O)c1ccc(C(C)(C)C)cc1`?
Rango complex inh: -0.4%; Rango release inh: 27%

Results for CCOc1ccc(NC(=O)CN(C)C(=O)CN2C(=O)NC3(CCCC3)C2=O)cc1OCC ?
Rango complex inh: -1.4%; Rango release inh: -18%

How did COc1ccc(NC(=O)CS(=O)(=O)Cc2nc(-c3ccc(C)cc3)oc2C)cc1 do in these assays?
Rango complex inh: -3.7%; miR-21 reporter: -1%; Rango release inh: 40%

Results for CCCN(C(=O)CCCSc1nc2ccccc2[nH]1)c1c(N)n(Cc2ccccc2)c(=O)[nH]c1=O ?
Rango complex inh: 0.4%; Rango release inh: 10%

Results for Cc1ccc(CNC(=O)Nc2cccc(C)c2)cc1 ?
Rango complex inh: 0.3%; miR-21 reporter: -55%; GLA inh pH 4.5: -2; Rango release inh: 21%

What do the screens show for `C/C(=N\OC(=O)c1ccccc1)c1cc(-c2ccc(Cl)cc2)no1`?
Rango complex inh: -1.0%; miR-21 reporter: -15%; GLA inh pH 4.5: 9; Rango release inh: -6%

What do the screens show for `Nn1c(Cc2cccc3ccccc23)n[nH]c1=S`?
Rango complex inh: 0.4%; miR-21 reporter: 4%; GLA inh pH 4.5: 3; Rango release inh: -1%

How did CCOC(=O)c1c(NC(=O)c2ccno2)c2cc([N+](=O)[O-])ccc2n1C do in these assays?
Rango complex inh: 1.9%; miR-21 reporter: 1%; GLA inh pH 4.5: -1; Rango release inh: -6%

How did S=C(Nc1ccc(Cl)cc1Cl)NC1CCN(Cc2ccccc2)CC1 do in these assays?
Rango complex inh: 0.4%; miR-21 reporter: 19%; GLA inh pH 4.5: -3; Rango release inh: -12%

Results for O=C(Nc1ccc2c(c1)CCC2)C1CCN(c2ncccn2)CC1 ?
Rango complex inh: -0.1%; miR-21 reporter: -24%; GLA inh pH 4.5: 1; Rango release inh: -14%

How did O=C(O)c1ccccc1C(=O)c1ccc(F)c(F)c1 do in these assays?
Rango complex inh: -0.1%; Rango release inh: -17%

How did CC[n+]1ccccc1/C=C/c1ccc(N(C)C)cc1 do in these assays?
Rango complex inh: 8.2µM*; miR-21 reporter: inconclusive; GLA inh pH 4.5: -9; Rango release inh: inconclusive

How did C/C(Cc1ccccc1)=N\NC(=O)CNC(=O)c1cccc(Br)c1 do in these assays?
Rango complex inh: 3.2%; miR-21 reporter: -2%; GLA inh pH 4.5: -6; Rango release inh: 20%

What do the screens show for `COC(=O)/C=C/c1ccc(OC(=O)OC)c(OC(=O)OC)c1`?
Rango complex inh: -2.3%; miR-21 reporter: -41%; GLA inh pH 4.5: -19; Rango release inh: -21%

How did C=CCN(CC=C)C(=O)C(=O)c1ccn(-c2c(C)csc2C(=O)OC)c1 do in these assays?
Rango complex inh: 2.0%; miR-21 reporter: 2%; GLA inh pH 4.5: 2; Rango release inh: 1%

How did CSc1ccc(NS(=O)(=O)c2ccc(-n3cnnn3)cc2)cc1 do in these assays?
Rango complex inh: 2.4%; miR-21 reporter: 3%; Rango release inh: 4%

Results for CC(=O)Oc1ccccc1C1C[C@]2(C)CC(=O)NC2N1C(C)=O (some centres undefined) ?
Rango complex inh: -4.2%; miR-21 reporter: -1%; GLA inh pH 4.5: 8; Rango release inh: inconclusive

Results for O=C(NCc1ccccc1)c1csc(-c2cccnc2)n1 ?
Rango complex inh: -0.2%; miR-21 reporter: 26%; GLA inh pH 4.5: 2; Rango release inh: 1%

How did CCN1CCCC1CNC(=O)c1cc2ccc(OC)cc2[nH]1 (centres undefined) do in these assays?
Rango complex inh: -0.9%; miR-21 reporter: -5%; Rango release inh: -12%

How did Cc1cc(-n2c(C)cc(C(=O)CSc3nncn3C(C)C)c2C)no1 do in these assays?
Rango complex inh: -0.7%; Rango release inh: 15%

How did OCC[C@H]1C[C@@H](O)[C@H](O)[C@]2(Cc3ccccc3O2)O1 do in these assays?
Rango complex inh: 3.0%; Rango release inh: 6%

What do the screens show for `Cc1cccc(C(=O)NNS(=O)(=O)c2ccc(F)cc2)c1`?
Rango complex inh: 9.4%; miR-21 reporter: 1%; Rango release inh: -11%

How did O=S(=O)(c1cnccc1N1CCN(/N=C/c2ccc(Br)cc2)CC1)N1CCCCC1 do in these assays?
Rango complex inh: 4.1%; miR-21 reporter: -4%; GLA inh pH 4.5: -5; Rango release inh: 2%

How did NNC(=O)c1[nH]c2ccccc2c1-c1ccccc1 do in these assays?
Rango complex inh: 0.8%; miR-21 reporter: 25%; Rango release inh: 16%

How did N#CCc1nc(C(c2ccccc2)c2ccccc2)no1 do in these assays?
Rango complex inh: -5.1%; miR-21 reporter: 3%; Rango release inh: 11%

Results for Cc1c(N2C(=O)CS/C2=N\N=C\c2ccccc2O)c(=O)n(-c2ccccc2)n1C ?
Rango complex inh: -0.2%; miR-21 reporter: -2%; GLA inh pH 4.5: 6; Rango release inh: -16%

What do the screens show for `C=CCN1C(=O)/C(=C2/Sc3ccc(OC)cc3N2CC)SC1=S`?
Rango complex inh: inconclusive; miR-21 reporter: -5%; Rango release inh: inconclusive

Results for Cc1ccc(NC(=O)C(=O)C2C(=O)Nc3ccccc32)cc1 (centres undefined) ?
Rango complex inh: 1.3%; miR-21 reporter: -16%; GLA inh pH 4.5: -4; Rango release inh: -7%

How did COc1cc(OC)cc(N2C(=O)CSCC2=O)c1 do in these assays?
Rango complex inh: 2.5%; miR-21 reporter: 3%; GLA inh pH 4.5: 1; Rango release inh: -7%

How did CSCC(C)N1CCC(CCC(=O)NC2CC2)CC1 (centres undefined) do in these assays?
Rango complex inh: 2.6%; miR-21 reporter: 0%; Rango release inh: inconclusive

Results for COc1cc(CN2CCN(C(=O)c3cccc4ccccc34)CC2)cc(OC)c1O ?
Rango complex inh: -0.5%; miR-21 reporter: -2%; Rango release inh: -1%

How did COc1ccccc1C1/C(=C(/O)c2ccccc2)C(=O)C(=O)N1CC(C)O (centres undefined) do in these assays?
Rango complex inh: -1.3%; miR-21 reporter: -5%; GLA inh pH 4.5: -2; Rango release inh: 4%

Results for Cc1ccc2sc3ccc(NC(=O)c4ccccc4Cl)cc3c(=O)c2c1 ?
Rango complex inh: inconclusive; miR-21 reporter: -24%; GLA inh pH 4.5: -5; Rango release inh: inconclusive

How did O=S(=O)(c1ccccc1)N1CCN(CCc2ccccc2)CC1 do in these assays?
Rango complex inh: 2.7%; miR-21 reporter: -1%; Rango release inh: 23%

What do the screens show for `CN1C2CCC1CC(NS(=O)(=O)c1cccc(C(F)(F)F)c1)C2` (centres undefined)?
Rango complex inh: -1.3%; miR-21 reporter: -3%; Rango release inh: -20%

Results for CC1CN(C2CCCCC2)C(=O)NC1=O (centres undefined) ?
Rango complex inh: 14%; Rango release inh: 8%

How did CC(C)CNC(=S)N1CCC(NC(=O)c2ccco2)CC1 do in these assays?
Rango complex inh: 1.4%; miR-21 reporter: 0%; GLA inh pH 4.5: 2; Rango release inh: -11%

How did CCOc1cc(C#N)c(NC(=O)c2ccco2)cc1OCC do in these assays?
Rango complex inh: 0.2%; miR-21 reporter: 13%; GLA inh pH 4.5: -2; Rango release inh: 14%

What do the screens show for `O=C(NCc1ccc(Cl)cc1)c1ccc(Cn2cc(C(F)(F)F)ccc2=O)cc1`?
Rango complex inh: 2.3%; miR-21 reporter: 9%; GLA inh pH 4.5: 0; Rango release inh: -9%

Results for Fc1ccc(-n2ncc3c(SCc4cccnc4)ncnc32)cc1 ?
Rango complex inh: inconclusive; miR-21 reporter: -44%; GLA inh pH 4.5: -15; Rango release inh: -1%

Results for Cc1cccc(-c2noc(CNC(=O)c3ccco3)n2)c1 ?
Rango complex inh: 4.0%; miR-21 reporter: -16%&-22%; Rango release inh: -4%

What do the screens show for `COc1ccc(NC(=S)Nc2cccc(C(C)=O)c2)cc1OC`?
Rango complex inh: -1.9%; miR-21 reporter: -14%; GLA inh pH 4.5: 0; Rango release inh: -11%

What do the screens show for `CC(C)(C)C(=O)NC(=S)Nc1ccccc1C(=O)NC1CCCCC1`?
Rango complex inh: -1.2%; miR-21 reporter: -11%; GLA inh pH 4.5: 5; Rango release inh: 12%

What do the screens show for `COC(=O)C1=C(CS(=O)(=O)c2cc(OC)ccc2OC)NC(=O)NC1c1ccc(O)c(OC)c1` (centres undefined)?
Rango complex inh: inconclusive; miR-21 reporter: 0%; Rango release inh: inconclusive

Results for O=C(CSc1n[nH]c(-c2ccccc2Br)n1)NCCN1C(=O)CSC1=O ?
Rango complex inh: 8.6%; miR-21 reporter: -14%; GLA inh pH 4.5: 6; Rango release inh: 7%

Structures above that contain a Cl atom, in the order listed:
How did O=C(Nc1ccc2c(c1)OCCO2)c1ccc(Cl)c(S(=O)(=O)N2CCCCC2)c1 do in these assays?
Rango complex inh: -4.0%; miR-21 reporter: 1%; GLA inh pH 4.5: -14; Rango release inh: -4%

How did Cc1ccc(/C=C/C2=NN(Cc3ccccc3Cl)C(=O)CC2)cc1 do in these assays?
Rango complex inh: 4.8%; miR-21 reporter: -6%; GLA inh pH 4.5: -7; Rango release inh: -12%

What do the screens show for `C/C(=N\OC(=O)c1ccccc1)c1cc(-c2ccc(Cl)cc2)no1`?
Rango complex inh: -1.0%; miR-21 reporter: -15%; GLA inh pH 4.5: 9; Rango release inh: -6%

How did S=C(Nc1ccc(Cl)cc1Cl)NC1CCN(Cc2ccccc2)CC1 do in these assays?
Rango complex inh: 0.4%; miR-21 reporter: 19%; GLA inh pH 4.5: -3; Rango release inh: -12%

Results for Cc1ccc2sc3ccc(NC(=O)c4ccccc4Cl)cc3c(=O)c2c1 ?
Rango complex inh: inconclusive; miR-21 reporter: -24%; GLA inh pH 4.5: -5; Rango release inh: inconclusive

What do the screens show for `O=C(NCc1ccc(Cl)cc1)c1ccc(Cn2cc(C(F)(F)F)ccc2=O)cc1`?
Rango complex inh: 2.3%; miR-21 reporter: 9%; GLA inh pH 4.5: 0; Rango release inh: -9%
